Source: PubChem BioAssay
FGF22 binding: binders of recombinant human FGF22 by thermal shift; AID 651658; Q9HCT0; SYPRO orange fluorescence; percent of sucrose octasulfate shift, DMSO zero; 1.5% of 340,000 active; calls only at 9.99 µM;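 active = melting point raised past a set limit in the mean and every replicate; inconclusive = no clear call; three in four hits are not shown here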
Target sequence (Q9HCT0 whole entry, looked up): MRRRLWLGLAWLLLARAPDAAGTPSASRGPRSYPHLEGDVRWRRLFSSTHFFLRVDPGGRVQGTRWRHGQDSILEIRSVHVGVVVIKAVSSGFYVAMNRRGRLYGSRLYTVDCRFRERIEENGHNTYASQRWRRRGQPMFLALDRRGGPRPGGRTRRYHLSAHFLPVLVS
Calb FLC: C. albicans growth modulation with fluconazole. C. albicans CaCi-2 (fluconazole-resistant clinical isolate) + fluconazole, Alamar Blue growth, 48 h. growth inhibition, % (test concentration not listed). 0.57% of 300,000 active. AID 1979;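 active = most replicates above 75%; inconclusive = exactly half above 75%; inactive = most below 75%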;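 note: all wells also contain fluconazole at 8 µg/ml as a sub-toxic cotreatment; 0% = median of DMSO wells and 100% = median of geldanamycin control wells; wells of about 8 µL received 7.5 nL stock; the first replicate is given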
Ecoli rRNA inh: selective bacterial rRNA inhibition in E. coli; E. coli WT GFP vs humanized-ribosome RFP mutants, fluorescence, 24 h; hits give low values; DMSO median 0, no signal -100; 1.6% of 350,000 active; GFP signal change (wild-type ribosome), % (no concentration beside the values);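 active = significant combined selectivity score with lowered wild-type GFP, culture density cut under 30%, mutant RFP and density less affected; inactive = any of these conditions unmet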; note: one replicate is shown; some compounds called inactive have numbers as strong as hits
ALR inh: blocks human ALR sulfhydryl oxidase activity | purified ALR, DTT oxidation, H2O2 HRP-luminol luminescence | inhibition, % (no concentration beside the values) | 3.8% of 290,000 active | AID 485317;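 active = mean and each replicate at 75% or more; inconclusive = only one of the two met; inactive = neither met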;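 note: stock transfer was 7.5 nL into about 7.5 µL; 0% = neutral wells and 100% = wells with inactivated enzyme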
Target sequence (P55789 whole entry, looked up): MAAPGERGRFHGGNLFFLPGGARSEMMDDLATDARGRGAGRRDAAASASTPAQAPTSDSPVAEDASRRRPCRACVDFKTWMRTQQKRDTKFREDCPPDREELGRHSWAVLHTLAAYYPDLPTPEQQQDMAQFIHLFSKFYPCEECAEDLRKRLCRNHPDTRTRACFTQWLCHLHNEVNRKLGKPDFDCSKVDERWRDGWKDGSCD
AF4-AF9 inh: blocks AF4 peptide binding to human AF9 | AlphaScreen, biotin-AF4 peptide binding to FLAG-AF9 | P42568 | 0.47% of 350,000 active | inhibition, % at 10 µM;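 active = every replicate reaching a set inhibition limit, whatever the replicate mean, cut at about 25% in these data; inconclusive = mean inhibition reaches that limit but some replicates miss it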;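 note: 0% = plate neutral control median and 100% = total signal loss; the record names both 10 and 1 µM as test concentration; the first replicate is given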
Target sequence (P42568 whole entry, looked up): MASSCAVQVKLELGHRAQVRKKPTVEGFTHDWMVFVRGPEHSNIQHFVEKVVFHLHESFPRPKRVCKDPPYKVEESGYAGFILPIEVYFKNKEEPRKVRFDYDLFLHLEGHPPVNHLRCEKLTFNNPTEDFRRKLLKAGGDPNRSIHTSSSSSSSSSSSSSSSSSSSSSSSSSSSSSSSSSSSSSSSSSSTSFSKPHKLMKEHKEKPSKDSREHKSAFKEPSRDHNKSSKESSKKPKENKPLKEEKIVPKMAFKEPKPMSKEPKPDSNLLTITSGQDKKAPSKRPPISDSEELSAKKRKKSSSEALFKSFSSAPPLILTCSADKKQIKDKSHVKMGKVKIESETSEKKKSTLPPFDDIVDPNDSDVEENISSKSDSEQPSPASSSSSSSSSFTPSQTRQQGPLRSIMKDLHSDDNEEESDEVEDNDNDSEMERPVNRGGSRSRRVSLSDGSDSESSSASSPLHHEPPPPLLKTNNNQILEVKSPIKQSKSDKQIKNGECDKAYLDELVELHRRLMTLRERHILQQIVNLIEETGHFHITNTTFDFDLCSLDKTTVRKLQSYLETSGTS
RanGTP-Imp inh: disruptors of Ran-importin-beta complex formation – biochemical, FRET, CFP-Ran, YFP-importin-beta, homogeneous, primary screen; inhibition, % (no concentration beside the values); 1.1% of 300,000 active; AID 2216; cell-free CFP-Ran/YFP-importin-beta FRET ratio;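 active = most replicates above 15%; inconclusive = exactly half above 15%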;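 note: 0% = DMSO wells and 100% = Ran loaded with GDP instead of GTP; wells of about 40 µL received 100 nL stock; the first replicate is given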
Beta cell apopt: blocks beta cell apoptosis; INS-1E cytokine-induced death, ATP luminescence, 48 h; percent of positive-control rescue, neutral wells zero; protection from apoptosis, % (test concentration not listed); 0.8% of 300,000 active; AID 435005;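 active = all replicates at 75% or more, or half of them and the mean; inconclusive = half reach 75% but not the mean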;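 note: 0% = cytokine-treated negative control wells and 100% = positive control rescue; higher means more ATP so stronger rescue from cytokine killing; wells of about 40 µL received 100 nL stock; the first replicate is given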
T cruzi repl: T. cruzi replication inhibition. AID 1885. T. cruzi beta-gal in NIH3T3, luminescence, 90 h. 1.4% of 300,000 active. inhibition, % (concentration not given with the values);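 active = mean inhibition across valid replicates above about 55%, limit read from the data; inconclusive = mean below that limit but half or more replicates reach it; inactive = mean below it, under half of replicates reach it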;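 note: signal also drops with host cell toxicity which is not excluded here; 0% = plate median of DMSO wells and 100% = zero luminescence signal; higher percent means less beta-gal luminescence so fewer parasites; stock transfer was 50 nL into about 50 µL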
Ecoli rRNA inh OD600: recorded beside Ecoli rRNA inh, whose call it bears; OD600 change, %; measured here: OD600 growth;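 optical density of the mix in the first replicate; 0 = DMSO median and -100 = no signal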
Ecoli rRNA inh RFP: recorded beside Ecoli rRNA inh, whose call it bears; RFP signal change, %; measured here: RFP humanized mutant strains;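 first replicate; 0 = DMSO median and -100 = no signal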
An asterisk follows results filed as active; i = inactive; ? = inconclusive; · = no result given. An excerpt (hit frequency here may not be typical).

Value order – ALR inh	Ecoli rRNA inh	RanGTP-Imp inh	T cruzi repl	AF4-AF9 inh	Beta cell apopt	FGF22 binding	Ecoli rRNA inh OD600	Ecoli rRNA inh RFP	Calb FLC
- CCOc1ccc(N(CC(=O)NC2CC2)S(=O)(=O)c2ccc(C)cc2)cc1
    1	10	-1.3	4	0.1	2	i	6	-0.2	-4
- Cc1ccc(S(=O)(=O)N2CCCOC2CNC(=O)C(=O)NCCc2c[nH]c3ccccc23)cc1 (stereo not given)
    -7	·	-0.1	5	·	2	·	·	·	9
- CC(C)c1ccc(/C=C/C(=O)NCCCc2ccccc2)cc1
    -5	·	-3.8	16	·	-2	·	·	·	-3
- COc1ccc2cc(S(=O)(=O)n3cnc(C)c3)ccc2c1
    98*	-3	-1.2	-2	-5.2	-1	i	3	-1.2	10
- COCCN(C(=O)CNC(=O)c1cccs1)C(C(=O)NC(C)(C)C)c1ccccc1 (stereo not given)
    ·	8	2.9	-8	-2.3	-4	i	15	1.6	19
- Cc1cc(C)cc(C(=O)NC(CC(N)=O)c2ccc(NC3CCCC3)c([N+](=O)[O-])c2)c1 (stereo not given)
    ·	5	-0.8	9	-54	2	i	4	-2.0	-6
- CN(C)c1ccc(-c2noc(C3CCN(C(=O)Nc4ccc(Cl)cc4)CC3)n2)cc1
    -12	-10	1.5	13	-1.5	25	i	1	16	-3
- O=C(Nc1ccccc1)Nc1ccccn1
    -17	·	-5.5	-15	·	0	·	·	·	-16
- COC(=O)c1ccc(NC(=O)CN(c2ccc(C)cc2)S(=O)(=O)c2c(C)nn(C)c2C)cc1
    ·	8	4.9	7	0.0	11	i	7	0.3	41
- Cc1ccc(-n2nnc3ccccc3c2=O)cc1C
    -15	·	1.2	11	·	1	·	·	·	-16
- Nc1ccc2nc3c(=O)[nH]c(=S)[nH]c3nc2c1
    ·	24	3.8	-3	-17	-3	i	3	-5.3	-3
- O=C(CN1C(=O)/C(=C\C=C\c2ccccc2)SC1=S)Nc1ccc(F)cc1
    -2	4	-28	-10	4.2	5	i	15	31	1
- Cc1ccccc1C(=O)NNC(=O)CCC(=O)Nc1cccc(Cl)c1C
    -12	·	-1.4	5	-5.1	-4	i	·	·	-9
- COc1cccc(NC(=O)C(OC(=O)c2ccccc2NS(=O)(=O)c2cccs2)c2ccccc2)c1 (stereo not given)
    -3	·	1.1	-9	·	3	·	·	·	7
- CC1CN(c2ccc(NC(=S)Nc3ccc(N4CC(C)OC(C)C4)cc3)cc2)CC(C)O1 (stereo not given)
    97*	-6	1.6	16	12	-11	i	11	3.5	-1
- CSc1ccc(C2C(C#N)=C(N)Oc3cc4c(cc32)OCO4)cc1 (stereo not given)
    -23	9	?	-15	-41	6	i	5	22	-12
- CCOc1cccc(CNCCCSc2ncccn2)c1
    -5	11	-2.1	33	4.6	-1	i	5	1.8	-6
- O=C(COC(=O)c1ccc([N+](=O)[O-])cc1)NCCC1=CCCCC1
    ·	7	·	·	0.9	-7	i	14	-1.5	·
- O=C(CCc1nnc(Cc2ccc(-c3ccccc3)cc2)o1)NCCc1cccnc1
    -3	-9	3.1	8	-47	-6	i	-10	-1.9	16
- N=c1c2c(-c3ccccc3)c(-c3ccccc3)n(Cc3ccccc3)c2ncn1CCCO
    -5	·	5.9	71*	·	18	·	·	·	6
- COC(=O)C1=NN(C(=O)c2ccccc2)C(C)(O)C1 (stereo not given)
    1	17	-1.6	-28	·	7	·	18	0.6	9
- CC(=O)c1cccc(NC(=O)CSc2nc(=O)n(CCN3CCOCC3)c3c2CCC3)c1
    -416	4	2.9	-1	-2.2	-1	i	9	-1.0	0
- COCC1CCCN(C(=O)c2ccc3oc(Cc4ccc(Cl)cc4)nc3c2)C1 (stereo not given)
    -12	-2	3.9	1	2.2	4	i	-15	0.3	-15
- CC(N=Cc1nc(-c2ccccc2)oc1O)c1ccccc1 (stereo not given)
    -2	·	0.3	19	·	·	·	·	·	18
- O=C(CSc1nnc(-c2ccc(F)cc2)o1)N1CCCCC1
    -2	-5	-0.6	-4	1.0	7	·	-6	0.2	-6
- CC1/C(=N/O)C(CN(C)C)C2CC1C2(C)C (stereo not given)
    -3	·	-2.8	1	·	-1	·	·	·	-6
- CC(O)[C@@]1(O)CC[C@H]2[C@@H]3CC[C@H]4C[C@@H](O)CC[C@]4(C)C3=CC[C@@]21C (stereo not given in full)
    -4	6	?	-9	1.8	-4	i	15	3.4	-6
- CC(C)(C)OC(=O)NC(Cc1ccccc1)C(=O)N1CCC(C(=O)NCC(=O)Nc2ccc(F)cc2)CC1 (stereo not given)
    3	0	-4.7	6	0.0	-4	i	5	-6.0	-10
- Cc1cc(/C=C\c2ccccc2)nc2ccccc12
    -2	-50	-2.5	-2	26*	8	i	-73	-10	3
- C=CCn1c(C2CC(=O)N(c3ccc(C)cc3)C2)nc2ccccc21 (stereo not given)
    87*	·	-0.2	2	·	19	·	·	·	9
- O=C(NCCCN1CCCCC1)C1CCC(=O)N1CCc1ccccc1 (stereo not given)
    -3	·	-0.5	-2	·	1	·	·	·	2
- CC(C)OC(=O)/C(=C\c1cccnc1)NC(=O)c1ccccc1
    ·	11	-5.2	1	-2.7	-12	i	6	-14	-3
- Cc1ccc(NC(=O)C(=O)NCc2ccc(/C=C(/C#N)C(=O)NCc3cccnc3)o2)cc1
    ·	·	-1.5	-18	·	2	·	·	·	-1
- Cc1cn(CCC(=O)Nc2ccccc2N2CCOCC2)c2ccccc12
    3	-10	-0.9	10	-2.0	-4	·	-14	-3.1	1
- O=C(CN1CCCc2ccccc21)N1CCc2ccccc21
    5	12	5.9	-13	0.5	-1	i	5	4.7	5
- Cc1nc(CCNC(=O)CC2C(=O)NCCN2Cc2ccccc2F)sc1C (stereo not given)
    ·	10	2.5	0	-6.7	0	i	3	0.9	?
- CC(Oc1ccccc1Cl)C(=O)/C=C/N(C)C (stereo not given)
    -3	·	3.0	-16	·	2	·	·	·	-4
- Cc1cc(NC(=O)CC#N)n(-c2ccccc2)n1
    0	10	6.2	-1	-1.7	4	·	4	6.1	0
- CCCCNC(=O)c1nc2ncc(Br)cn2n1
    -1	·	-1.3	1	·	-4	·	·	·	37
- CCOC(=O)c1c(C)[nH]c(C)c1C(=O)CSc1nc2ccccc2n1CCOC
    ·	·	7.7	10	0.1	-5	i	·	·	2
- N=c1n(CCN2CCOCC2)c2ccccc2n1CC(=O)c1cccc([N+](=O)[O-])c1
    2	8	3.5	9	0.4	3	i	12	-4.6	19
- Cc1cc(=O)oc2c(C)c(OC(C)C(=O)NCCCN3CCOCC3)ccc12 (stereo not given)
    -5	-4	3.8	5	-3.9	·	i	1	-4.1	1
- CCCNC(=O)C1(CC2CC(c3ccccc3)=NO2)CCN(C(=O)c2ccccc2)CC1 (stereo not given)
    -8	·	·	·	0.2	-8	i	·	·	·
- Cn1c(=O)c2c(nc(NCc3ccc4c(c3)OCO4)n2C)n(C)c1=O
    0	·	-4.2	-8	·	-3	·	·	·	5
- COC(=O)c1ccccc1NC(=O)C1CC(=O)N(c2ccccc2)C1 (stereo not given)
    -7	·	-0.3	-1	·	-5	·	·	·	-4
- CC(C)CCN1CCN(Cc2ccc(C#CCCO)cc2)CC1CCO (stereo not given)
    -20	9	-0.8	40	0.9	-7	i	13	2.1	2
- O=C1c2ccccc2-c2nc3ccccc3cc21
    1	-15	-0.5	3	2.5	1	i	-11	-8.4	5
- CC1=C(C#N)C2(O)C(=O)c3ccccc3C2(O)N1 (stereo not given)
    ·	8	·	·	-3.7	1	i	2	-2.8	-6
- C=CCc1ccccc1OCCn1ccnc1
    -26	·	?	-10	·	-7	·	·	·	1
- Cc1cc(N2CC(=O)N(CCc3ccccc3)C(=O)C2)n2ncnc2n1
    -12	·	0.6	7	·	0	·	·	·	-12
- CC(C)(C)NC(=O)c1ccc(Sc2ccccc2)c([N+](=O)[O-])c1
    -1	·	4.6	19	·	18	·	·	·	0
- COc1ccc(/C=C/C(=O)NCCN2CCOCC2)cc1OC
    -3	31	-15	4	-0.5	-2	i	28	4.0	1
- COc1ccc(C(=O)Nc2ccccc2C(=O)NCC2CCCO2)cc1 (stereo not given)
    2	-1	?	-1	0.0	-5	i	-4	2.8	-21
- C/C(=N\NC(=O)CSc1nc2nc(C)cc(C)n2n1)c1ccccc1
    12	·	5.1	-16	·	·	·	·	·	-5
- Cc1cccc(OCCCC(=O)Nc2ccc(N3CCOCC3)cc2)c1
    7	·	-0.2	5	·	7	·	·	·	-2
- NC(=O)NC(=O)CSc1nnc(-c2ccco2)n1Cc1ccccc1
    -4	·	?	-1	·	-3	·	·	·	4
- CC(C)[C@H](NC(=O)Cc1ccccc1)C(=O)OCc1cc(=O)n2c(n1)sc1ccccc12
    -2	·	1.3	-7	-8.0	-3	i	·	·	-1
- Cc1cc(NC(=O)CSc2nnnn2-c2ccccc2F)no1
    -8	-1	-0.9	-7	0.2	0	i	-8	0.0	8
- NC(N)=N/N=C/c1ccc(Cl)c(Cl)c1
    -4	-28	0.3	53	3.8	4	i	-47	-0.9	2
- CCOC(=O)C1=C(CC)Nc2ccccc2N=C1NC(=O)c1cc(S(=O)(=O)N(C)C)ccc1Cl
    0	·	-4.4	5	·	5	·	·	·	0

Continued.
Value order – ALR inh	Ecoli rRNA inh	RanGTP-Imp inh	T cruzi repl	AF4-AF9 inh	Beta cell apopt	FGF22 binding	Ecoli rRNA inh OD600	Ecoli rRNA inh RFP	Calb FLC
- CC(Sc1ccc(Cl)cc1)C(=O)NCC1CCCO1 (stereo not given)
    0	·	1.2	6	·	-10	·	·	·	-3
- CCN1CCCc2cc(CN(CCN3CCOCC3)C(=S)Nc3ccccc3C)ccc21
    99*	4	-1.5	35	4.8	-4	i	-3	0.4	15
- CCOC(=O)C1CCN(C(=O)CCc2nnc3ccc(NCc4ccco4)nn23)CC1
    3	8	0.5	-6	0.3	·	i	-6	0.3	-2
- Fc1ccc(-c2cn3ccccc3n2)cc1
    6	7	0.7	-15	-0.2	7	i	2	-1.0	-17
- CCOC(=O)CN(C)C(=O)CCc1nnc(-c2ccsc2)o1
    ·	33	1.2	-7	0.1	-6	i	33	-1.3	3
- CC(C)OC(=O)c1c(NC(=O)c2cnn3c2NC(c2ccccc2)CC3C(F)F)sc2c1CCCC2 (stereo not given)
    -7	·	-2.3	-4	·	-3	·	·	·	5
- O=C(Nc1nnc(S(=O)(=O)N2CCOCC2)s1)c1ccccc1
    99*	4	1.7	12	47*	5	i	1	-2.5	-8
- Cc1c(C(=O)N/N=C/c2cccnc2)sc(N)c1C#N
    -8	22	1.1	-2	3.5	-15	i	27	2.3	-3
- CCc1ccc(CN(C)C(=O)C2CCC(=O)N(CC3CCCCC3)C2)cc1 (stereo not given)
    2	-34	0.7	11	-0.9	-5	i	-44	-4.8	-2
- CC(C)(C)c1ccc(S(=O)(=O)Nc2ccc(Cc3ccncc3)cc2)cc1
    -12	·	-3.0	25	·	37	·	·	·	0
